# Vaccinia stage = blocks a specific stage of Vaccinia orthopoxvirus infection, primary screen, cell-based, single point. Vaccinia-infected cells, mCherry/Venus stage reporter fluorescence; stronger effect = lower value; some inactives read as strong as hits. activity change (mCherry), % (test concentration not listed). 89,000 tested, 0.01% active;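 active = mCherry past -33% and 40 or more points under the early reporter, replicates agreeing; inconclusive = past -33% without that gap or agreement; tested in A549 cells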;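 note: scaled between vehicle wells and reference inhibitor wells; 23 nL library stock went into each well; one replicate is shown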
# Vaccinia stage Venus = recorded beside Vaccinia stage, whose call it bears; activity change (Venus), %; measured here: Venus reporter, other viral stage;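 negative = less Venus signal; first of two replicates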
# Active calls of the source: *; ? = inconclusive; / = not tested or not shown.
1) C[C@@H]1CCCCO[C@@H](CN(C)C(=O)Nc2ccc(C(F)(F)F)cc2)[C@@H](C)CN([C@H](C)CO)C(=O)c2cc(NC(=O)CCC(F)(F)F)ccc2O1
2) N#C[C@H]1[C@H](c2ccccc2-c2cccc(F)c2)[C@@H](CO)N1C(=O)CN1CCOCC1
3) C[C@H](CO)N1C[C@H](C)[C@H](CN(C)C(=O)Nc2ccccc2F)Oc2ncc(/C=C/c3ccccc3)cc2C1=O
4) C[C@@H]1CN([C@H](C)CO)C(=O)CCCn2nncc2CO[C@@H]1CN(C)Cc1ccc(Cl)c(Cl)c1
5) COC(=O)C[C@H]1C[C@H]2c3cc(NC(=O)c4cccnc4)ccc3O[C@H]2[C@@H](CO)O1
6) Cc1noc(C)c1S(=O)(=O)Nc1ccc2c(c1)C(=O)N([C@@H](C)CO)C[C@@H](C)[C@@H](CN(C)C(=O)CCC(F)(F)F)OCCCC[C@H](C)O2
assay / compound,1,2,3,4,5,6
Vaccinia stage,21,9,-32,?,6,-16
Vaccinia stage Venus,5,-2,-16,/,3,-15

7) O=C(C[C@H]1CC[C@@H](NS(=O)(=O)c2ccc(F)cc2)[C@H](CO)O1)N1CCc2ccccc2C1
8) C[C@@H]1CN([C@H](C)CO)C(=O)c2cc(NC(=O)Nc3ccc(F)cc3)ccc2O[C@@H](C)CCCCO[C@H]1CN(C)Cc1ccc(Cl)c(Cl)c1
9) N#C[C@H]1[C@H](c2ccc(C3=CCCCC3)cc2)[C@@H](CO)N1C(=O)c1cccc(F)c1
10) CN1CCCCN2[C@H](CO)[C@H](c3ccc(Br)cc3)[C@@H]2C1
11) O=C(C[C@H]1C=C[C@H](NC(=O)Cc2cccnc2)[C@H](CO)O1)NCc1ccc2c(c1)OCO2
12) C[C@@H]1CN([C@@H](C)CO)C(=O)c2cc(C#CC3CC3)cnc2O[C@@H]1CN(C)C(=O)CC1CC1
assay / compound,7,8,9,10,11,12
Vaccinia stage,-5,-28,-25,10,2,22
Vaccinia stage Venus,13,-21,-19,-6,4,11

13) COc1ccc(CN(C)C[C@@H]2OCCCC[C@@H](C)Oc3ccc(NS(=O)(=O)c4cn(C)cn4)cc3C(=O)N([C@H](C)CO)C[C@@H]2C)cc1
14) Cc1ccc(S(=O)(=O)Nc2ccc3c(c2)C(=O)N([C@@H](C)CO)C[C@@H](C)[C@H](CN(C)S(C)(=O)=O)O3)cc1
15) COCC(=O)N1C[C@@H](C)[C@H](OC)CN(C)C(=O)c2ccc(NC(=O)c3ccccc3)cc2OC[C@H]1C
16) CC(C)NC(=O)N(C)C[C@@H]1Oc2ccc(NC(=O)Cc3cn(C)c4ccccc34)cc2CC(=O)N([C@@H](C)CO)C[C@@H]1C
17) C/C=C/c1ccc([C@@H]2[C@H](CO)N3CCCCN(S(=O)(=O)c4ccc(OC)cc4)C[C@@H]23)cc1
18) Cc1ccc(S(=O)(=O)Nc2ccc3c(c2)C(=O)N([C@H](C)CO)C[C@H](C)[C@H](CN(C)S(=O)(=O)c2ccc(C)cc2)OCCCC[C@@H](C)O3)cc1
assay / compound,13,14,15,16,17,18
Vaccinia stage,12,16,-8,4,13,18
Vaccinia stage Venus,8,9,-8,1,5,6

19) Cc1noc(C)c1S(=O)(=O)Nc1ccc2c(c1)C(=O)N([C@H](C)CO)C[C@H](C)[C@@H](CN(C)S(=O)(=O)c1ccc(F)cc1)OCCCC[C@@H](C)O2
20) Cc1ccc(F)cc1S(=O)(=O)N[C@@H]1CCN(C(=O)c2ccc(OC(C)C)cc2)C1
21) O=C(C[C@@H]1C=C[C@@H](NS(=O)(=O)c2ccc(F)cc2)[C@@H](CO)O1)NCCc1ccncc1
22) C[C@H]1CN([C@@H](C)CO)C(=O)CCCn2nncc2CO[C@@H]1CN(C)Cc1ccc(Oc2ccccc2)cc1
23) O=C(Nc1ccccc1F)N1C[C@@H]2[C@H](c3ccccc31)[C@@H](CO)N2C(=O)c1ccccn1
24) CO[C@H]1CC[C@@H]2CCN(C)C(=O)[C@@H](C)[C@@H](OC)CN(C)C(=O)c3cccc(C#N)c3OC[C@@H]1O2
assay / compound,19,20,21,22,23,24
Vaccinia stage,-2,3,4,-5,2,19
Vaccinia stage Venus,-15,3,11,-3,2,7

25) CCCNC(=O)C[C@H]1CC[C@H]2[C@@H](COC[C@@H](O)CN2S(=O)(=O)c2ccccc2F)O1
26) C[C@@H]1CN([C@@H](C)CO)C(=O)c2cc(C#Cc3ccccc3)cnc2O[C@@H]1CN(C)C(=O)c1ccccc1
27) N#Cc1cccc(-c2ccc([C@@H]3[C@@H](CO)N4CCCCN(C(=O)Nc5cccc(F)c5)C[C@@H]34)cc2)c1
28) CCCNC(=O)N(C)C[C@H]1Oc2cc(-c3cncnc3)ccc2S(=O)(=O)N([C@H](C)CO)C[C@@H]1C
29) CCCNC(=O)N1[C@H](C#N)[C@@H](c2ccccc2-c2ccc(OC)cc2)[C@@H]1CO
30) CC(C)NC(=O)N(C)C[C@H]1Oc2ccc(NC(=O)Cc3ccccc3)cc2C(=O)N([C@@H](C)CO)C[C@H]1C
assay / compound,25,26,27,28,29,30
Vaccinia stage,15,-21,-33,26,2,9
Vaccinia stage Venus,10,-21,-22,8,-3,8

# 4 entries picked at random from the list so far, as already listed:
29) CCCNC(=O)N1[C@H](C#N)[C@@H](c2ccccc2-c2ccc(OC)cc2)[C@@H]1CO
25) CCCNC(=O)C[C@H]1CC[C@H]2[C@@H](COC[C@@H](O)CN2S(=O)(=O)c2ccccc2F)O1
30) CC(C)NC(=O)N(C)C[C@H]1Oc2ccc(NC(=O)Cc3ccccc3)cc2C(=O)N([C@@H](C)CO)C[C@H]1C
26) C[C@@H]1CN([C@@H](C)CO)C(=O)c2cc(C#Cc3ccccc3)cnc2O[C@@H]1CN(C)C(=O)c1ccccc1
assay / compound,29,25,30,26
Vaccinia stage,2,15,9,-21
Vaccinia stage Venus,-3,10,8,-21

# Next section:
31) C[C@@H]1CN([C@@H](C)CO)C(=O)c2cccc(NC(=O)NC3CCCCC3)c2O[C@@H]1CN(C)Cc1ccccc1
32) C[C@@H]1CN([C@H](C)CO)C(=O)c2c(c3ccccc3n2C)-c2ccccc2CO[C@H]1CN(C)C(=O)Nc1ccccc1C(F)(F)F
33) O=C(C1=C[C@@H](c2ccc(Br)cc2)C[C@@H](OCCCCO)O1)N1CCCCCCC1
34) C[C@@H]1CN([C@H](C)CO)C(=O)Cc2cc(NC(=O)CCN3CCOCC3)ccc2O[C@H]1CN(C)S(=O)(=O)c1ccc(F)cc1
35) CCCC(=O)Nc1ccc2c(c1)C(=O)N(C)[C@@H]1CC[C@H](CC(=O)NCCCN(C)C)O[C@H]1CO2
36) O=C(C[C@H]1CC[C@@H]2[C@H](COC[C@H](O)CN2C(=O)C2CCOCC2)O1)NCc1ccncc1
assay / compound,31,32,33,34,35,36
Vaccinia stage,-7,?,0,11,11,25
Vaccinia stage Venus,-2,/,7,9,13,25

37) O=C(CN1CCOCC1)N1CCCCN2[C@H](CO)[C@@H](c3ccc(-c4ccccc4F)cc3)[C@H]2C1
38) CO[C@H]1CN(C)C(=O)c2ccc(NC(=O)Nc3c(C)noc3C)cc2OC[C@H](C)N(CCC(F)(F)F)C[C@@H]1C
39) CCOc1ccc(N2C(=O)CS(=O)(=O)C2c2ccccc2)cc1 (centres undefined)
40) C[C@H](CO)N1C[C@H](C)[C@H](CN(C)C(=O)C2CCCCC2)OCc2cn(nn2)CCCC1=O
41) COc1ccc(S(=O)(=O)N(C)C[C@@H]2OCCCC[C@@H](C)Oc3ccc(NC(=O)C4CCCCC4)cc3C(=O)N([C@H](C)CO)C[C@H]2C)cc1
42) COc1ccc2c3c([nH]c2c1)[C@@H](CO)N(Cc1ccccc1)CC31CN(C)C1
assay / compound,37,38,39,40,41,42
Vaccinia stage,-12,14,8,2,-29,1
Vaccinia stage Venus,-9,5,5,0,-21,3

43) Cc1noc(C)c1NC(=O)N(C)C[C@@H]1OCCCC[C@H](C)Oc2ccc(NS(=O)(=O)c3cccs3)cc2C(=O)N([C@H](C)CO)C[C@@H]1C
44) COC(=O)C[C@@H]1C[C@@H]2c3cc(NC(=O)Nc4ccc(OC)cc4)ccc3O[C@@H]2[C@@H](CO)O1
45) CO[C@@H]1CC[C@H]2CCN(C)C(=O)[C@@H](C)N(C)C(=O)c3cc(C#N)ccc3OC[C@@H]1O2
46) O=C(C[C@H]1CC[C@H](NC(=O)c2ccncc2)[C@H](CO)O1)Nc1ccc(-c2ccccc2)cc1
47) CCCC(=O)Nc1ccc2c(c1)OC[C@@H](C)N(Cc1ccccc1)C[C@@H](C)[C@H](OC)CN(C)C2=O
48) CO[C@@H](CN(C)C(=O)c1ccccc1F)[C@@H](C)CN([C@H](C)CO)S(=O)(=O)c1ccccc1
assay / compound,43,44,45,46,47,48
Vaccinia stage,32,14,2,-7,15,26
Vaccinia stage Venus,16,10,1,-4,10,26

49) COCC#Cc1ccc([C@@H]2[C@@H](CO)N3C(=O)CN(C(=O)C4CCCCC4)C[C@@H]23)cc1
50) Cc1ccc(S(=O)(=O)Nc2cccc3c2O[C@H](CN(C)Cc2ccc(Cl)c(Cl)c2)[C@H](C)CN([C@@H](C)CO)C3=O)cc1
51) O=C(C[C@@H]1C[C@@H]2c3cc(NC(=O)C4CCOCC4)ccc3O[C@@H]2[C@H](CO)O1)NCc1ccc(Cl)cc1
52) CN1C(=O)c2cc(NC(=O)c3ccc4c(c3)OCO4)ccc2OC[C@H]2O[C@@H](CC(=O)O)CC[C@@H]21
53) COc1ccc(NC(=O)N(C)C[C@H]2Oc3ccc(NC(=O)NC4CCCCC4)cc3C(=O)N([C@@H](C)CO)C[C@H]2C)cc1
54) C[C@H](CO)N1C[C@H](C)[C@@H](CN(C)Cc2ccc3c(c2)OCO3)Oc2ccc(NC(=O)CCCCCC(=O)Nc3ccccc3N)cc2CC1=O
assay / compound,49,50,51,52,53,54
Vaccinia stage,1,8,10,10,18,23
Vaccinia stage Venus,10,-1,4,2,17,18

55) CCN1[C@H](C(=O)OC)[C@@H](CO)[C@@H]2Cn3c(ccc(-c4ccc(F)cc4)c3=O)[C@@H]21
56) COc1ccccc1CNC(=O)C[C@H]1C=C[C@H](NC(C)=O)[C@H](CO)O1
57) O=C(CC1CC1)Nc1ccc2c(c1)[C@H]1C[C@H](CC(=O)NC3CCCCC3)O[C@@H](CO)[C@H]1O2
58) COCC(=O)Nc1ccc2c(c1)[C@H]1C[C@H](CC(=O)O)O[C@H](CO)[C@H]1O2
59) C[C@H](CO)N1C[C@H](C)[C@@H](CN(C)C(=O)CCN2CCCCC2)Oc2ncc(C#Cc3ccccc3)cc2C1=O
60) C[C@@H]1CCCCO[C@H](CN(C)Cc2ccc3c(c2)OCO3)[C@@H](C)CN([C@@H](C)CO)C(=O)c2cc(NS(=O)(=O)c3ccc(F)cc3)ccc2O1
assay / compound,55,56,57,58,59,60
Vaccinia stage,8,-1,4,11,-24,?
Vaccinia stage Venus,14,5,1,10,-16,/

61) CC(C)NC(=O)N(C)C[C@@H]1Oc2ccc(NC(=O)CCN3CCOCC3)cc2C(=O)N([C@H](C)CO)C[C@@H]1C
62) N#Cc1cccc(-c2ccc(C3[C@@H]4CN(S(=O)(=O)c5ccccc5)C[C@H]3N4)cc2)c1 (some centres undefined)
63) Cc1ccc(-c2ccc([C@H]3[C@H]4CN(S(=O)(=O)c5ccccc5C)CCCCN4[C@H]3CO)cc2)cc1
64) O=C(c1ccncc1)N1CC(=O)N2[C@H](CO)[C@@H](c3ccc(-c4ccccc4)cc3)[C@H]2C1
65) O=C(NC1CCCC1)N[C@@H]1CC[C@H](CC(=O)N2CCOCC2)O[C@@H]1CO
66) COc1ccc(NC(=O)N2CC(=O)N3[C@H](C2)[C@H](c2ccc(-c4ccc(C)cc4)cc2)[C@@H]3CO)cc1
assay / compound,61,62,63,64,65,66
Vaccinia stage,12,?,-27,-21,-9,?
Vaccinia stage Venus,9,14,-20,-14,-2,/

67) C[C@@H]1CN([C@H](C)CO)S(=O)(=O)c2ccc(Br)cc2O[C@H]1CN(C)Cc1cccc(C(=O)O)c1
68) C[C@H]1CN([C@@H](C)CO)C(=O)c2cc(NS(=O)(=O)c3ccccc3)ccc2O[C@@H]1CN(C)Cc1ccc(Oc2ccccc2)cc1
69) C[C@@H]1CN([C@@H](C)CO)C(=O)c2cc(NC(=O)Nc3cccc4ccccc34)ccc2O[C@@H](C)CCCCO[C@@H]1CN(C)C(=O)CCCN(C)C
70) CO[C@H]1CN(C)C(=O)c2ccc(NS(C)(=O)=O)cc2OC[C@H](C)N(C(=O)CC2CC2)C[C@H]1C
71) Cc1ccc(-c2cnc3c(c2)C(=O)N([C@H](C)CO)C[C@@H](C)[C@@H](CN(C)C(=O)CN(C)C)O3)cc1
72) COCCNC[C@H]1[C@H](c2ccccc2)[C@H](CO)N1c1nc(C)c(C)s1
assay / compound,67,68,69,70,71,72
Vaccinia stage,11,-23,2,5,-1,3
Vaccinia stage Venus,5,-22,7,3,-6,5

73) C[C@@H]1CN([C@H](C)CO)C(=O)c2cccc(NS(=O)(=O)c3cccs3)c2O[C@@H]1CN(C)C
74) C[C@@H]1CN([C@H](C)CO)C(=O)c2cccc(NS(=O)(=O)c3ccccc3)c2O[C@H]1CN(C)C(=O)NC1CCCCC1
75) CN(C)C(=O)C[C@H]1CC[C@H]2[C@@H](COc3ccc(NC(=O)Nc4cccc(Cl)c4)cc3C(=O)N2C)O1
76) Cc1ccc(S(=O)(=O)N(C)C[C@H]2Oc3cc(C#Cc4ccccc4)ccc3S(=O)(=O)N([C@@H](C)CO)C[C@@H]2C)cc1
assay / compound,73,74,75,76
Vaccinia stage,16,9,10,-31
Vaccinia stage Venus,4,0,7,-24

# Screening results from PubChem.

# A portion of the library (hit frequency here may not be typical).
